HIV Env fusion: inhibitors of HIV Env-mediated cell fusion; actives 1.1% (n = 360,000); inhibition, % at 12.3 µM; HeLa-JRFL Env/CEM21 cell fusion, luciferase;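 active means mean replicate inhibition score of at least 50 and every replicate individually at or above 50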;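 further: 0% = plate neutral controls and 100% = maraviroc near 300 nM; one replicate is shown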
* marks the source's active call; other numbers are inactive results; [ ] = another dose, or the depositor's remark. Only part of the results is shown; count on the stated rates, not on these rows.

no.	SMILES	HIV Env fusion
1	CCNC(=O)C[C@H]1CC[C@H]2[C@@H](COc3ccc(NC(C)=O)cc3C(=O)N2C)O1	7[16.7 µM]
2	COc1cccc(CNC(=O)C[C@@H]2C=C[C@@H](NC(=O)C3CCC3)[C@H](CO)O2)c1	-7[16.7 µM]
3	CCC(=O)Nc1ccc2c(c1)OC[C@H](C)N(C(=O)c1cnccn1)C[C@H](C)[C@H](OC)CN(C)C2=O	3[16.7 µM]
4	CN(C)CC(=O)Nc1ccc2c(c1)[C@@H]1C[C@@H](CC(=O)N3CCCCC3)O[C@@H](CO)[C@@H]1O2	10[16.7 µM]
5	O=C(C[C@H]1CC[C@@H](NC(=O)Cc2cccnc2)[C@H](CO)O1)Nc1ccc(-c2ccccc2)cc1	18[16.7 µM]
6	O=C(Nc1ccc2c(c1)[C@@H]1C[C@@H](CC(=O)N3CCc4ccccc4C3)O[C@@H](CO)[C@@H]1O2)c1ccc2c(c1)OCO2	24[16.7 µM]
7	CO[C@H]1CN(C)C(=O)c2cc(NC(=O)NC(C)C)ccc2OC[C@@H](C)NC[C@@H]1C	-14[16.7 µM]
8	C[C@H](CO)N1C[C@H](C)[C@H](CN(C)Cc2ccccc2C(=O)O)Oc2cc(-c3ccc(F)cc3)ccc2S1(=O)=O	-11[16.7 µM]
9	COc1ccc(CN(C)C(=O)[C@@H](Cc2ccccc2)NC(=O)[C@H]2O[C@@H](n3ccc(N)nc3=O)[C@H](O)[C@@H]2O)cc1OC	-16
10	CO[C@@H]1CN(C)C(=O)c2ccc(NS(=O)(=O)CC(F)(F)F)cc2OC[C@@H](C)N(C(=O)c2ccc3c(c2)OCO3)C[C@@H]1C	65*[16.7 µM]
11	CCCN1C[C@H](C)[C@H](OC)CN(C)C(=O)c2cc(NC(=O)Nc3ccccc3F)ccc2OC[C@@H]1C	7[16.7 µM]
12	C[C@H](CO)N1C[C@H](C)[C@@H](CN(C)Cc2ccc3c(c2)OCO3)Oc2ccc(NC(=O)Cc3ccccc3)cc2C1=O	15[16.7 µM]
13	Cc1cc(N2CCN(CC(C)(C)O)C[C@@H]2C)ccc1N1CCN(Cc2ccccc2)[C@H](C)C1	6
14	C[C@H]1CN([C@@H](C)CO)C(=O)Cc2cc(NC(=O)Nc3ccc(F)cc3)ccc2O[C@@H]1CN(C)Cc1ccc(C(F)(F)F)cc1	32[16.7 µM]
15	CCS(=O)(=O)N1CC2(CN(Cc3ccc(OC)cc3)[C@H](CO)c3c2c2ccc(OC)cc2n3C)C1	0[16.7 µM]
16	CCNC(=O)C[C@@H]1CC[C@@H]2[C@H](COc3ccc(NC(C)=O)cc3C(=O)N2C)O1	-2[16.7 µM]
17	CCC(=O)N(C)C[C@H]1Oc2ncc(C#CC(C)C)cc2C(=O)N([C@@H](C)CO)C[C@@H]1C	-3[16.7 µM]
18	C[C@H](CO)N1C[C@H](C)[C@H](CN(C)Cc2cccc3c2OCCCO3)OCc2cnnn2CCCC1=O	-13[16.7 µM]
19	CO[C@@H](CN(C)S(=O)(=O)c1cccc(Cl)c1)[C@@H](C)CN([C@@H](C)CO)S(=O)(=O)c1ccc(Cl)cc1	29[16.7 µM]
20	COC(=O)C[C@@H]1CC[C@@H]2[C@H](COC[C@H](O)CN2C(=O)Nc2ccccc2OC)O1	-7[16.7 µM]
21	COc1ccc(C(=O)Nc2ccc3c(c2)C(=O)N(C)[C@H]2CC[C@@H](CC(=O)NCC4CC4)O[C@@H]2CO3)cc1	-52[16.7 µM]
22	CN1C(=O)c2cc(NC(=O)c3cccs3)ccc2OC[C@@H]2O[C@H](CC(=O)N3CCCCC3)CC[C@H]21	-1[16.7 µM]
23	C/C=C/c1cnc2c(c1)C(=O)N([C@H](C)CO)C[C@@H](C)[C@@H](CN(C)C(=O)C1CCC1)O2	-1[16.7 µM]
24	C[C@@H]1CN([C@H](C)CO)C(=O)c2cc(NC(=O)CCN3CCOCC3)ccc2O[C@H]1CN(C)Cc1ccc(C(F)(F)F)cc1	6[16.7 µM]
25	CCOC(=O)C1=C(C(=O)OCC)C2N(Cc3ccc(C#N)cc3)c3ccccc3[C@@]23C[C@@H](C(=O)OC)N(S(=O)(=O)c2ccccc2)C3=N1 (stereo partly specified)	-10
26	O=C(C[C@H]1C[C@@H]2c3cc(NC(=O)c4ccc5c(c4)OCO5)ccc3O[C@@H]2[C@H](CO)O1)NCCc1ccccc1	-8[16.7 µM]
27	COc1ccccc1CNC(=O)C[C@H]1C[C@H]2c3cc(NC(=O)Nc4ccc(C(F)(F)F)cc4)ccc3O[C@H]2[C@@H](CO)O1	-17[16.7 µM]
28	O=C(CCN1CCCCC1)NCC[C@@H]1CC[C@@H](NS(=O)(=O)c2cccc(Cl)c2)[C@H](CO)O1	-5[16.7 µM]
29	CO[C@@H]1CC[C@@H]2CCOc3c(C#N)cccc3C(=O)N(C)C[C@H](C)C(=O)N(C)C[C@H]1O2	5[16.7 µM]
30	CO[C@@H]1CC[C@@H]2CCOc3ccc(C#N)cc3C(=O)N(C)C[C@@H](C)C(=O)N(C)C[C@H]1O2	19[16.7 µM]

Next section, overlapping the part above by 2 compounds.
no.	SMILES	HIV Env fusion
29	CO[C@@H]1CC[C@@H]2CCOc3c(C#N)cccc3C(=O)N(C)C[C@H](C)C(=O)N(C)C[C@H]1O2	5[16.7 µM]
30	CO[C@@H]1CC[C@@H]2CCOc3ccc(C#N)cc3C(=O)N(C)C[C@@H](C)C(=O)N(C)C[C@H]1O2	19[16.7 µM]
31	CNC[C@H]1Oc2ccc(NC(=O)Nc3ccccc3)cc2C(=O)N([C@@H](C)CO)C[C@@H]1C	-4[16.7 µM]
32	C[C@@H]1ON(C)[C@H]2C[C@H]3c4[nH]c5cccc(-c6ccc7c(c6)OCO7)c5c4CCN3C(=O)[C@@H]12	-18
33	CO[C@@H]1CN(C)C(=O)c2cc(NC(=O)c3ccc4c(c3)OCO4)ccc2OC[C@@H](C)N(CC2CC2)C[C@H]1C	3[16.7 µM]
34	CO[C@H]1CC[C@@H]2CCN(C)C(=O)CC3(CCCCC3)CN(C)C(=O)c3cccc(C#N)c3OC[C@H]1O2	-16[16.7 µM]
35	CO[C@H]1CN(C)C(=O)c2cc(C#N)ccc2OC[C@@H]2O[C@H](CC[C@H]2OC)CCN(C)C(=O)[C@H]1C	0[16.7 µM]
36	O=C(N[C@@H]1CC[C@H](CCNC(=O)c2cnccn2)O[C@@H]1CO)c1ccc2c(c1)OCO2	-2[16.7 µM]
37	CC(CNC(=O)[C@@H](Cc1ccccc1)NC(=O)[C@H]1O[C@@H](n2ccc(=O)[nH]c2=O)[C@H](O)[C@@H]1O)c1ccccc1 (stereo partly specified)	-19
38	Cc1[nH]c2ccccc2c1CC(=O)Nc1ccc(Nc2cccnc2)c(-c2cccc(Cl)c2)c1	-75
39	CCOC(=O)N[C@@H](Cc1cccnc1)C(=O)N1CCC[C@H]1C(=O)NC1CCCC1	-4
40	COCC(=O)N(C)C[C@@H]1Oc2cc(-c3ccccc3F)ccc2S(=O)(=O)N([C@@H](C)CO)C[C@H]1C	-7[16.7 µM]
41	COC(=O)Cn1cnc2c(NC(=O)c3ccccc3)ncnc21	-7
42	Cc1ccc(S(=O)(=O)Nc2ccc3c(c2)C(=O)N([C@H](C)CO)C[C@H](C)[C@H](CN(C)C)OCCCC[C@@H](C)O3)cc1	-4[16.7 µM]
43	CSc1cccc(NC(=S)NN/C(=N/S(=O)(=O)c2ccccc2)N2CCCC2)c1	-16
44	O=C(C[C@H]1CC[C@@H](NC(=O)C2CCOCC2)[C@@H](CO)O1)NCc1ccccc1Cl	10[16.7 µM]
45	CO[C@H]1CN(C)C(=O)c2cc(NC(=O)C3CCC3)ccc2OC[C@@H](C)N(C)C[C@@H]1C	9[16.7 µM]

Shown as a hit in HIV Env fusion (from the list above):
no.	SMILES	HIV Env fusion
10	CO[C@@H]1CN(C)C(=O)c2ccc(NS(=O)(=O)CC(F)(F)F)cc2OC[C@@H](C)N(C(=O)c2ccc3c(c2)OCO3)C[C@@H]1C	65*[16.7 µM]

Three entries out of the list, ordered by formula weight, smallest number first:
no.	SMILES	HIV Env fusion
7	CO[C@H]1CN(C)C(=O)c2cc(NC(=O)NC(C)C)ccc2OC[C@@H](C)NC[C@@H]1C	-14[16.7 µM]
29	CO[C@@H]1CC[C@@H]2CCOc3c(C#N)cccc3C(=O)N(C)C[C@H](C)C(=O)N(C)C[C@H]1O2	5[16.7 µM]
9	COc1ccc(CN(C)C(=O)[C@@H](Cc2ccccc2)NC(=O)[C@H]2O[C@@H](n3ccc(N)nc3=O)[C@H](O)[C@@H]2O)cc1OC	-16

(further entries)
no.	SMILES	HIV Env fusion
46	COC(=O)C[C@H]1C[C@H]2c3cc(N)ccc3O[C@H]2[C@@H](CO)O1	-6[16.7 µM]
47	Cc1noc(C)c1NC(=O)N(C)C[C@@H]1Oc2ccc(NC(=O)Cc3ccccc3)cc2C(=O)N([C@H](C)CO)C[C@H]1C	-4[16.7 µM]
48	CO[C@@H]1CN(C)C(=O)c2cc(NC(=O)c3ccccc3F)ccc2OC[C@H](C)N(CC2CCOCC2)C[C@@H]1C	-2[16.7 µM]
49	C=CCNc1ccc2c(c1)OC[C@H](CC(C)C)NS2(=O)=O	17
50	COc1ccccc1CNC(=O)C[C@H]1CC[C@@H]2[C@H](COC[C@@H](O)CN2C(=O)Nc2ccc(F)cc2)O1	5[16.7 µM]
51	O=C(C[C@@H]1C[C@H]2c3cc(NC(=O)c4ccc5c(c4)OCO5)ccc3O[C@H]2[C@H](CO)O1)NCCc1ccccc1	18[16.7 µM]
52	C[C@@H]1CN([C@@H](C)CO)S(=O)(=O)c2ccc(-c3ccccc3)cc2O[C@@H]1CN(C)C	0[16.7 µM]
53	C[C@@H]1CN([C@H](C)CO)C(=O)c2cccc(N(C)C)c2O[C@H]1CN(C)Cc1ccc(-c2ccccc2)cc1	5[16.7 µM]
54	C[C@H](CO)N1C[C@H](C)[C@@H](CN(C)Cc2ccc(C(=O)Nc3ccccc3N)cc2)Oc2ccc(NC(=O)Nc3ccc(F)cc3)cc2CC1=O	33[16.7 µM]
55	O=C(NCc1ccccn1)[C@@H]1[C@@H](CO)[C@@H]2Cn3c(ccc(C4=CCCC4)c3=O)[C@H]1N2Cc1cccnc1	8[16.7 µM]
56	O=S1(=O)N[C@H](c2ccccc2)COc2cc(Br)ccc21	-12
57	CO[C@H](C(=O)N(C)C[C@H]1OCc2ccccc2-c2c(n(C)c3ccccc23)C(=O)N([C@H](C)CO)C[C@@H]1C)c1ccccc1	1[16.7 µM]
58	CC=Cc1ccc2n(c1=O)C[C@@H]1[C@@H](CO)[C@H](C(=O)NCCc3ccncc3)[C@H]2N1CCC(F)(F)F (mixture of isomers)	2[16.7 µM]
59	COc1ccc2c3c([nH]c2c1)[C@H](CO)N(C(=O)C1CC1)CC31CCN(S(C)(=O)=O)CC1	-23[16.7 µM]
60	O=C(C[C@@H]1CC[C@@H]2[C@H](COC[C@H](O)CN2CC2CCOCC2)O1)NCc1ccc(Cl)cc1	-16[16.7 µM]
61	CC(=O)c1ccc(S(=O)(=O)N2CCN(C(=O)C(=O)c3cccc(C(F)(F)F)c3)CC2)cc1	6
62	C[C@@H]1CN([C@H](C)CO)C(=O)Cc2cc(NC(=O)Nc3cccc4ccccc34)ccc2O[C@H]1CN(C)Cc1ccncc1	12[16.7 µM]
63	CO[C@@H]1CN(C)C(=O)c2cc(NC(=O)Cc3ccccc3)ccc2OC[C@H](C)NC[C@@H]1C	-36[16.7 µM]
64	COc1ccccc1C(=O)Nc1ccc2c(c1)C(=O)N(C)[C@@H]1CC[C@H](CC(=O)NCCc3ccncc3)O[C@@H]1CO2	-5[16.7 µM]
65	Cc1ccc(S(=O)(=O)NCC2CCN(C(=O)C(=O)c3cccs3)CC2)cc1	-33
66	C[C@@H]1CN([C@H](C)CO)C(=O)c2cc(NC(=O)C3CCCCC3)ccc2O[C@@H](C)CCCCO[C@@H]1CN(C)S(C)(=O)=O	4[16.7 µM]
67	COCC(=O)Nc1ccc2c(c1)OC[C@@H](C)N(C(=O)C1CCCC1)C[C@H](C)[C@H](OC)CN(C)C2=O	-3[16.7 µM]
68	CO[C@@H]1CN(C)C(=O)c2ccc(NC(=O)C3CC3)cc2OC[C@@H](C)N(Cc2ccncc2)C[C@@H]1C	3[16.7 µM]
69	CO[C@@H](C(=O)N(C)C[C@@H]1OCc2ccccc2-c2ccccc2C(=O)N([C@H](C)CO)C[C@H]1C)c1ccccc1	-36[16.7 µM]
70	O=C(C[C@@H]1CC[C@@H]2[C@H](COC[C@H](O)CN2C(=O)Nc2cc(Cl)cc(Cl)c2)O1)N1CCOCC1	9[16.7 µM]
71	O=C(C[C@@H]1CC[C@@H](NC(=O)c2cccc(F)c2)[C@@H](CO)O1)NCCN1CCCC1	-4[16.7 µM]
72	COc1cccc(-c2ccc3c(c2)[C@@H]2C[C@H]4[C@@H](CN2CC3)[C@H](C)ON4C)c1	-3
73	CC1=CC2C3C(=O)N(c4ccccc4)C(=O)C3C1C(=O)C2(O)C(C)C (stereo unspecified)	-4
74	C[C@H](CO)N1C[C@H](C)[C@H](CN(C)C(=O)Cc2ccccc2)Oc2ncc(C#CCN(C)C)cc2C1=O	9[16.7 µM]
75	COc1ccc(C(Cl)=C(C=O)c2ccc(OC)c(OC)c2)cc1OC	24
76	COC(=O)[C@H]1[C@@H](O)[C@@]2(O)c3c(OC)cc(OC)cc3O[C@@]2(c2ccc(OC)cc2)[C@@H]1c1ccc(F)cc1	27
77	CCC(=O)N1C[C@H](C)[C@H](OC)CN(C)C(=O)c2ccc(NC(=O)NC(C)C)cc2OC[C@H]1C	-12[16.7 µM]
78	COc1ccccc1Cc1c(-c2ccc(Cl)cc2)nc2ccc(C)cn12	-31
79	CO[C@H]1CN(C)C(=O)c2cc(NS(C)(=O)=O)ccc2OC[C@H](C)N(Cc2cncnc2)C[C@@H]1C	-8[16.7 µM]
80	CO[C@H]1CN(C)C(=O)c2ccc(NC(=O)Nc3c(C)noc3C)cc2OC[C@@H](C)N(CC2CC2)C[C@@H]1C	-9[16.7 µM]
81	O=C(C[C@H]1C[C@@H]2c3cc(NC(=O)c4ccc5c(c4)OCO5)ccc3O[C@@H]2[C@@H](CO)O1)NCc1cccnc1	2[16.7 µM]
82	O=C(O)C[C@@H]1CC[C@@H](NC(=O)c2ccncc2)[C@H](CO)O1	63*[16.7 µM]
